High-throughput results: PubChem, SRMLSC
H5N1 CPE: MDCK cell protection from H5N1 avian flu; cytopathic effect, luminescence, 72 h; hits give high values; no value below 0 was filed and about half of the inactive calls have no number; reference of the scale not given here; inhibition, % at 50 µM; 96,000 tested, 0.07% active; AID 740, 2007; in the data active means inhibition above about 25%
* = called active by the depositor; i = inactive.

SMILES	H5N1 CPE
CCOC(=O)CSc1nnc(Cc2ccccc2)n1Cc1ccco1	0.6
O=C(N/C(=N\O)c1ccccc1)Nc1ccc(Cl)cc1	i
CC1=C/C(=N\OS(=O)(=O)c2ccccc2)C(C)=CC1=O	i
COC(=O)[C@H](Cc1ccccc1)NC(=O)N1CCCCC1C (stereo partly specified)	0.3
COc1ccc2c(c1)c(C(=O)CN1CCC(C(N)=O)CC1)c(C)n2C	0.5
Cc1ccc(N2CCN(C(=O)c3ccccc3NC(=O)/C=C\C(=O)O)CC2)cc1	i
CC(=O)Nc1cccc(NC(=O)c2cc3ccccc3o2)c1	i
CCCC(C(=O)N1CCOCC1)N1C(=O)C2C3C=CC(C3)C2C1=O (stereo unspecified)	i
O=C(Nc1cccc(F)c1)OC(CN1CCCCC1)C(F)(F)F (stereo unspecified)	i
Cc1cc(NC(=O)NC2CCCN2S(=O)(=O)c2ccc(Cl)cc2)no1 (stereo unspecified)	0.8
COc1ccc(-c2noc(CN3C(=O)c4ccccc4C3=O)n2)cc1	0.9
c1ccc(Oc2cccc(CN3CCCCC3)c2)cc1	i
COc1cc(-c2nc3c(c(C)nn3-c3ccccc3)c3cc(OC)c(OC)cc23)ccc1O	i
c1ccc(Oc2cccc(OCCCn3cncn3)c2)cc1	0.4
COc1ccccc1NC(=O)CN(c1ccccc1F)S(C)(=O)=O	1.8
COc1ccc2ccccc2c1C(O)c1nccn1C (stereo unspecified)	1.3
Cc1onc(-c2ccccc2Cl)c1C(=O)Nc1ccc(-c2cn3cccnc3n2)cc1	i
Oc1ccccc1-c1nc(N2CCN(Cc3ccccc3)CC2)c2ccccc2n1	i
CCOCCCN1C(=O)CN(C2CCCCCC2)C(=O)C1c1ccc(OC)cc1 (stereo unspecified)	0.2
NCCc1nnc(SCc2c(F)cccc2Cl)o1	i
Cc1ccc(OCC(=O)N/N=C/c2cn[nH]c2-c2ccc(Cl)c(Cl)c2)cc1	i
CCCCNC(=O)Nc1nnc(-c2ccccc2)o1	0.7
CC(NS(=O)(=O)c1ccccc1)C(=O)Nc1nccs1 (stereo unspecified)	i
COc1ccccc1C(O)Cc1nc2ccccc2n1C (stereo unspecified)	0.6
CCOC(=O)N1CCC(NC(=O)CCc2nc(-c3ccc(C)cc3)no2)CC1	1.9
COC(=O)C(C)Oc1cc(C)cc2oc(=O)c3c(c12)CCC3 (stereo unspecified)	1.1
CCOC(=O)c1cnc2ccc(Br)cc2c1NCCO	3.4
CC(C)CC(NC(=O)C(NC(=O)OC(C)(C)C)C(C)C)C(=O)N1CCCC1C(N)=O (stereo unspecified)	i
CC1(C)CC(=O)C2=C(C1)NC(SCC(N)=O)=C(C#N)C21CCCCC1	i
COc1ccc(-c2csc3nc(C)n(-n4cccc4)c(=O)c23)cc1OC	1.4

Gathered by group: the compounds so far containing a halogen
SMILES	H5N1 CPE
O=C(N/C(=N\O)c1ccccc1)Nc1ccc(Cl)cc1	i
O=C(Nc1cccc(F)c1)OC(CN1CCCCC1)C(F)(F)F (stereo unspecified)	i
Cc1cc(NC(=O)NC2CCCN2S(=O)(=O)c2ccc(Cl)cc2)no1 (stereo unspecified)	0.8
COc1ccccc1NC(=O)CN(c1ccccc1F)S(C)(=O)=O	1.8
Cc1onc(-c2ccccc2Cl)c1C(=O)Nc1ccc(-c2cn3cccnc3n2)cc1	i
NCCc1nnc(SCc2c(F)cccc2Cl)o1	i
Cc1ccc(OCC(=O)N/N=C/c2cn[nH]c2-c2ccc(Cl)c(Cl)c2)cc1	i
CCOC(=O)c1cnc2ccc(Br)cc2c1NCCO	3.4

(next part)
SMILES	H5N1 CPE
O=C(Nc1cccnc1)C1COc2ccccc2O1 (stereo unspecified)	i
COc1ccc(CNC(=O)C2CSC(c3ccc(OC)cc3)N2C(C)=O)cc1 (stereo unspecified)	1.8
O=C(NCc1ccccc1)NC1(C(=O)N2CCCC2)CCCCC1	0.0
CCN1CCCC1CNCc1ccc(Cl)cc1Cl (stereo unspecified)	i
CCC1S/C(=C(\C#N)C(=O)NCc2ccco2)N(c2ccc(F)cc2)C1=O (stereo unspecified)	0.5
CCOC(=O)c1cc2sc(C)cc2n1CC(=O)Nc1cccc(C)c1C	i
COc1ccc2c(c1OC)C(=O)OC2CC(=O)c1ccc2c(c1)OCO2 (stereo unspecified)	0.2
CN(C)c1ccc(CN(C(=O)c2ccco2)C2CCS(=O)(=O)C2)cc1 (stereo unspecified)	i
Cc1nc2cc(NC(=O)NCc3ccccc3)ccc2o1	i
CCN1C(=O)CC(N2CCOCC2)C1=O (stereo unspecified)	0.3
O=C(NCc1ccco1)c1cccc(N2CCCC2=O)c1	i
COc1ccc(CCNC(=O)CN2CCN(c3cccc(Cl)c3)CC2)cc1OC	i
O=c1[nH]c2ccc(NC(=S)Nc3ccc(Cl)cc3Cl)cc2[nH]1	i
O=C(NCc1cccnc1)C1CCCN(Cc2cnn(-c3ccccc3)c2-n2cccc2)C1 (stereo unspecified)	0.6
N#Cc1c(N)nc(SCc2ccncc2)c(C#N)c1-c1cccs1	i
CC(C)N(CCCNC(=O)C1CCN(S(=O)(=O)N2CCOCC2)CC1)Cc1ccccc1	i
CC(=O)C1=NN(c2ccccc2)C(c2cccs2)N1c1ccccc1 (stereo unspecified)	i
CCOc1ccccc1NC(=O)Cn1cnc2c(nnn2-c2cccc(OC)c2)c1=O	0.1
CC(=O)N1CCc2cc(S(=O)(=O)NCCC(=O)Nc3cccc(C)c3)ccc21	0.6
Cc1cccn2c(=O)c3cc(C(=O)NCCN4CCOCC4)c(=N)n(CCc4ccccc4)c3nc12	i
COC(=O)c1nc2cc(C)ccn2c1F	0.1
CCOC(=O)N1CCN(c2c(NCCc3ccccc3)c(=O)c2=O)CC1	1.7
CC1OC(NCCc2ccccc2)C(O)C(O)C1O (stereo unspecified)	0.3
CCCCNC(=O)c1onc(CSc2cccc(F)c2)c1C(=O)O	0.2
O=c1c2ccccc2cnn1-c1ccc(Br)cc1	0.8
CCN(CC)c1ncnc2sc(C(=O)N3CCN(c4ccc(OC)cc4)CC3)c(C)c12	1.0
O=C(Cc1ccccc1)N1CCN(CC2CC=CCC2)CC1 (stereo unspecified)	0.8
Cc1ccc(-c2ccc(C3C(C#N)=C(N)Oc4n[nH]c(C)c43)o2)cc1 (stereo unspecified)	0.3
CC(C)COc1cc(=O)[nH]c(SCC(C)C)n1	0.3
O=C(Nc1ccc2nn(-c3ccccc3)nc2c1)c1ccc2c(c1)OCO2	0.4
N#Cc1nc(Cc2ccccc2)oc1N1CCC(C(N)=O)CC1	0.3
CC1(C)CC2CC(C)(CN2C(=O)COC(=O)Cn2[nH]c(=O)c3ccccc3c2=O)C1 (stereo unspecified)	i
Cc1ccc(C(=O)CSc2nnc(COc3cccc(C)c3)o2)cc1	0.5
COc1ccc2[nH]c(=O)c(-c3noc(-c4ccccc4)n3)cc2c1	i
COC(=O)c1ccccc1NC(=O)COC(=O)c1ccc(C)c(NC(=O)c2ccco2)c1	1.5
CCNc1cc(=O)n(C)c(=O)n1C	0.6
Cc1ccc(C(=O)NC(NC(=O)c2ccc(C)cc2)C(Cl)Cl)cc1	1.1
CN(C)CCNC(=O)c1ccccc1	i
Cc1cc(C)n(-c2ccc(C(=O)Nc3ccc(N4CCOCC4)cc3)cc2)n1	i
O=C(Nc1ccc(N=Nc2ccccc2)cc1)c1cccc(Cl)c1	i
CCOc1ccc(C(=O)c2ccc(OCC)c(N)c2)cc1N	i
COc1ccccc1N1CCN(S(=O)(=O)Cc2ccccc2Cl)CC1	0.4
COc1cc(CNC(=O)c2ccc(Cn3nc(C)c(Cl)c3C)o2)cc(OC)c1	i
COc1cc(C)c(S(=O)(=O)NCc2cccs2)cc1C	2.0
S=C(c1ccc(-c2cccc(Cl)c2)o1)N1CCOCC1	i
CCCC(NS(=O)(=O)c1ccc(OC)cc1)C(=O)O (stereo unspecified)	i
O=C1CSC(c2cccc(F)c2)N1c1ccc(O)cc1 (stereo unspecified)	1.0
CCN1CCc2c(C#N)c(N3CCCCC3)nc(NCc3ccccc3)c2C1	i
CCOc1ccc(NS(=O)(=O)c2ccc(OCC)c3ncccc23)cc1	11
O=C(NNc1ccc([N+](=O)[O-])cc1)C12CC3CC(CC(C3)C1)C2	1.5
CNC(=O)C1=C(C)Nc2nc3ccccc3n2C1c1cccc(OC)c1 (stereo unspecified)	i
CCCCSc1ccc2nc(-c3ccc(C#N)cc3)cn2c1	i
O=c1oc2ccccc2n1CCCOc1ccccc1	1.2
Cc1ccc(C2c3c(oc4ccc(Cl)cc4c3=O)C(=O)N2CCCN2CCOCC2)o1 (stereo unspecified)	2.1
O=C(NCCN1CCOCC1)c1ccc(Cl)cc1[N+](=O)[O-]	i
CCC1CCCCN1CCNS(=O)(=O)c1ccc2c(c1)CCN2C(C)=O (stereo unspecified)	1.6
O=C1C2CC=C(Cl)CC2C(=O)N1CCCCCCN1C(=O)C2CC=C(Cl)CC2C1=O (stereo unspecified)	i
COCCn1c(C)cc(C(=O)COC(=O)c2ccc(-n3nc(C)cc3C)cc2)c1C	0.2
CCCn1nc2cc(C(=O)NCc3ccc4c(c3)OCO4)ccc2c1OCC	2.2
Cn1cccc1C(=O)NC(=O)COC(=O)c1ccccc1Sc1ccccc1C#N	i

New compounds follow:
SMILES	H5N1 CPE
O=C1C(SC(F)(F)C(F)F)=C(C(F)(F)F)OC2C3C=CC(C3)C12 (stereo unspecified)	1.6
O=C(COc1ccccc1)Nc1ccc2c(c1)nc1n2CCSC1	i
Cc1ccccc1-n1nnnc1SCC(=O)Nc1ccc(S(=O)(=O)N2CCCC2)cc1	i
O=C(Nc1ccc(Br)cc1)/C(=C/c1cccc([N+](=O)[O-])c1)NC(=O)C1CCCCC1	i
CCc1ccc2[nH]c(=O)c(C(c3nnnn3CCOC)N3CCN(c4ccc(F)cc4)CC3)cc2c1 (stereo unspecified)	2.6
Cc1ccc(S(=O)(=O)NC(=O)Nc2nnc(C3CC3)s2)cc1	i
CC1CCN(C(=O)CN(C)S(=O)(=O)c2cccc3nsnc23)CC1	i
COc1ccccc1-n1c(SCC(=O)O)nnc1-c1ccc(S(=O)(=O)N2CCCCC2)cc1	1.1
COc1cc(NS(=O)(=O)c2ccc(NS(=O)(=O)c3ccccc3)cc2)nc(OC)n1	i
Cc1nnc(SCCn2c(N3CC(C)CC(C)C3)nc3c2c(=O)n(C)c(=O)n3C)s1 (stereo unspecified)	2.1
Clc1ccccc1Cn1nnc2c(Nc3ccccc3)ncnc21	i
Cc1cc(C)cc(-n2nnc(C(=O)NCc3ccc(Cl)cc3)c2N)c1	i
O=C(CSCc1ccc(F)cc1)N1CCN(c2ccccc2)CC1	1.6
CC(C)Sc1nc2c(cnn2-c2ccc(F)cc2)c(=O)[nH]1	0.5
CCOC(=O)COc1ccc(N)cc1CC(NC(C)=O)(C(=O)OCC)C(=O)OCC	i
Cc1ccc(OC(=O)c2cc3ccccc3o2)cc1	0.3
O=C(O)C1C2C=CC(O2)C1C(=O)NCc1ccccc1Br (stereo unspecified)	0.7
CC(C)CC1(C)NC(=O)N(CC(=O)NC(=O)Nc2ccc3c(c2)OCCO3)C1=O (stereo unspecified)	2.4
CCOC(=O)c1cccc(NC(=O)CSc2nnnn2C)c1	0.5
Cc1ccc(C(C(=O)NC2CCCC2)N2CCCC(C)C2)cc1 (stereo unspecified)	0.7
CC(C)c1ccc2nc3sc(C(=O)N4CCc5ccccc5C4)c(N)c3cc2c1	i
CCCC1CC(C)(C(=O)Cn2[nH]c(=O)ccc2=O)OC1=O (stereo unspecified)	i
C=CCNC(=O)c1ccc(N(C)S(=O)(=O)c2ccc(OC)cc2)cc1	0.2
CN1C(=O)C(O)(CC(=O)c2ccccc2O)c2cc(Br)ccc21 (stereo unspecified)	i
CCOc1ccc(C(=O)Nc2c3c(nn2-c2ccc(F)cc2)CS(=O)C3)cc1 (stereo unspecified)	i
CCCn1c(NCc2cc(OC)ccc2OC)nc2ccccc21	i
CN1CCN(S(=O)(=O)c2ccc(Cc3ccc(S(=O)(=O)N4CCN(C)CC4)cc3)cc2)CC1	0.7
CCNCC1(c2ccc(OC)c(OC)c2)CCCC1	0.4
CC(=O)CC(=O)Nc1cccc2c1CCCC2	i
COc1ccc(CCC(=O)Nc2cc(Cl)ccc2N2CCN(C)CC2)cc1	0.4

Ordered by formula weight (lowest first): part of the list above
SMILES	H5N1 CPE
CN(C)c1ccc(CN(C(=O)c2ccco2)C2CCS(=O)(=O)C2)cc1 (stereo unspecified)	i
CC(C)CC1(C)NC(=O)N(CC(=O)NC(=O)Nc2ccc3c(c2)OCCO3)C1=O (stereo unspecified)	2.4
Cc1cccn2c(=O)c3cc(C(=O)NCCN4CCOCC4)c(=N)n(CCc4ccccc4)c3nc12	i

(further entries)
SMILES	H5N1 CPE
CCOC(=O)N1CCN(C(=O)CSc2nnc(-c3cc(OC)cc(OC)c3)o2)CC1	i
O=C(CC(c1ccco1)S(=O)(=O)c1ccccc1)c1ccc(F)cc1 (stereo unspecified)	2.0
Cc1cc2c(c(=O)n1Cc1cccnc1)C(Cc1ccccc1)C(C#N)=C(N)O2 (stereo unspecified)	1.3
Cn1c(=O)cc(OCCCC(=O)N2CCN(c3ccccc3)CC2)c2ccccc21	1.7
Cc1cccc(NC2(C(F)(F)F)N=C(c3ccccc3)NC2=O)n1 (stereo unspecified)	i
COC(=O)c1c(-n2c(C)cc(C=O)c2C)sc2c1CCCC2	1.4
O=C(O)C1CCCN1c1ncnc2c1oc1ccccc12 (stereo unspecified)	i
Nc1nc2sc3c(c2cc1C(=O)N1CCOCC1)CCCC3	0.4
Cc1ccc2nc(C)cc(OCC(=O)O)c2c1	i
Cc1ccc(SCCC(=O)NCCSCc2ccccc2C)cc1	0.1

For reference, part of the list above:
SMILES	H5N1 CPE
O=C(O)C1CCCN1c1ncnc2c1oc1ccccc12 (stereo unspecified)	i
Nc1nc2sc3c(c2cc1C(=O)N1CCOCC1)CCCC3	0.4
Cc1ccc2nc(C)cc(OCC(=O)O)c2c1	i
Cc1ccc(SCCC(=O)NCCSCc2ccccc2C)cc1	0.1

A portion of the library; the hit share may differ from the screen's.
